PINK1 modulator = PINK1 expression modulation; AID 624263; PINK1 immunofluorescence, high-content cytometry, 24 h; Potency, µM (titrated, usually from 76.6 µM), for inactives: top-dose activation (PINK1 increase), hits mostly activators; 0.2% of 410,000 active; active = well fitted activation curve with a large enough effect; inconclusive = small, poorly fitted or top-dose-only effect; inactive = flat fitted curve, though single readings scatter; cell line not stated here;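 also: potency is read from the fitted curve at half-maximal effect; % of control where 0% means no effect; nearly all actives have a fitted effect of over 65% in size; a mitochondrial uncoupler was the plate control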
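Fluorescence from anti-PINK1 antibody, together with nuclear and cell stains, was scanned on a laser-scanning cytometer. Before staining, stable-line cells were incubated 24 hours with compounds at 5 concentrations; primary antibody 12 h at 10 degrees C.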
Sfp inh = Sfp phosphopantetheinyl transferase inhibition; Q9F4F7; Biochemical Sfp PPTase activity, qHTS; Potency, µM, without a hit: max response, negative = inhibition, actives largely listed as inhibitors; 3.5% of 310,000 active; AID 1490; active = well fitted inhibition curve with a large enough effect; inconclusive = small, poorly fitted or top-dose-only effect, or another doubt; inactive = no such curve, though single readings can be large or run the other way;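 also: the enzyme is Sfp with the accession as filed and its product quenches rhodamine fluorescence; potency is read from the fitted curve at half-maximal effect; 0% = enzyme reaction without inhibitor and -100% = no enzyme wells; top concentration of the series not given in the record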
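Fluorescence-quenching assay: 15 nM Sfp-PPTase preincubated 15 min at room temperature with compound, then 5 uM rhodamine-CoA and 12.5 uM BHQ-2-labelled YbbR peptide added. Fluorescence (ex 525/em 598 nm) read at start and after 30 min; difference gives rate.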
TRPML1 ag = activates the human TRPML1 channel; activation, % (no concentration beside the values); 0.12% of 410,000 active; TRPML1-expressing cells, Ca2+ dye fluorescence, FDSS; host cell line not named in the record; reference of the full effect not given here; Q9GZU1; in the data active = activation above about 50%; inconclusive = about 30% to 50%; inactive = below about 30%; also: 0% is about no effect; the text of the record puts the active cut at 80%
Target sequence (Q9GZU1 whole entry, looked up): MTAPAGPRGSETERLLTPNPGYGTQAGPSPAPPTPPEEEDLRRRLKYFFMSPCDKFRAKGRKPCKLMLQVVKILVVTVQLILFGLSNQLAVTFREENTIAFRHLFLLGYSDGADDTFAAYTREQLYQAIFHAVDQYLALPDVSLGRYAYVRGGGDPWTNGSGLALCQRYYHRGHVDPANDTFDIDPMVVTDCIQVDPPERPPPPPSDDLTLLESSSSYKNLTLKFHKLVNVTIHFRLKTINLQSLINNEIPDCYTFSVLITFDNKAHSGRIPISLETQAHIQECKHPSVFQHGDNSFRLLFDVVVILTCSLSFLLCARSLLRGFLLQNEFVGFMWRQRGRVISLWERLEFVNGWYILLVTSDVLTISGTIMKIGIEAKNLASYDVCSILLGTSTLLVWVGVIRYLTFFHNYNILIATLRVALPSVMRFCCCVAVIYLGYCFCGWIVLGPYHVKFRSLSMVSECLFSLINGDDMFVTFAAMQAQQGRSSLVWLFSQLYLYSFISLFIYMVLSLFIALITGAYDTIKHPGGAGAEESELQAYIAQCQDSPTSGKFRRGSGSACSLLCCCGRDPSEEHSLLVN
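Calcium fluorescence on an FDSS kinetic reader gave the read-out. Tet-induced TRPML1-DL cells were plated overnight, dye-loaded (Ca8 with quencher, 45-90 min, room temperature, dark), then read 110 s after compound addition, and again 110 s after 4uM final 54-4 (EC80).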
Menin MLL FP FL = inhibitors of human menin-MLL interaction, wild-type MLL peptide; Fluorescence polarization, fluorescein-MLL peptide displacement from menin; 290,000 tested, under 10 active; AID 1766; FP activity change, % at 61.4 µM; inconclusive = falling polarisation curve, or a change in total fluorescence; inactive = total fluorescence flat and polarisation flat or rising; no compound was filed as active; the % refers to the polarisation; negative = inhibition;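 also: % of control where 0% means no effect; inhibitors lower the polarisation; unlabelled MLL peptide was the positive control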
TRPV1 PAM = enhances activation of the human vanilloid receptor TRPV1 | Q8NER1 | AID 540277 | 0.02% of 320,000 active | TRPV1-expressing cells, Fluo-8 calcium influx, capsaicin EC20 potentiation; host cell line not named in the record; control for the full effect not named in the record | potentiation, % at 8.33 µM; active means potentiation above 80%; inconclusive means 30% to 80%; inactive means below 30%; also: 0% is about no effect
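Fluo-8 calcium influx in TRPV1-expressing cells, kinetic read (ex 480/em 520 nm). Compound added and read 3 min for agonist activity, followed by capsaicin at EC20 final and 2 min further read for enhancement.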
TRPML1 inh = inhibitors of human TRPML1 channel | Q9GZU1 | AID 624415 | TRPML1-inducible cells, Ca2+ dye fluorescence, FDSS; active compounds read low; inhibition of EC80 agonist-evoked calcium signal | activity change, negative = inhibition, % (test concentration not listed) | 0.02% of 390,000 active; in the data active means activity change below about -50%; inconclusive means about -30% to -50%; inactive means above about -30%;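 also: stimulus is agonist 54-4 at its EC80 concentration; % is scaled to controls: 0 for no effect and ±100 for the full control effect; compound concentration not given in the record; the text of the record puts the active cut at -80%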
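Tet-induced TRPML1-DL cells loaded with Ca8 no-wash calcium dye were read kinetically on FDSS. Compound addition was followed by EC80 agonist 54-4 (4 uM final); inhibition was read over 110 s.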
ClpP mod = qHTS Assay for Activators of ClpP; 1.9% of 340,000 active; ATP-dependent Clp protease proteolytic subunit (Bacillus subtilis (strain 168)), P80244; AID 651965, 2013; Potency, µM (doses to about 57.5 µM), inactives show top-dose activity change, negative = active; purified B. subtilis ClpP, FRET peptide cleavage, 20 min; active = well fitted falling curve with a large enough effect; inconclusive = small, poorly fitted or top-dose-only effect; inactive = no such curve, though single readings can be large or run the other way; also: potency is read from the fitted curve at half-maximal effect; the source files actives as falling curves though it sought activators and does not explain the sign; nearly all actives have a fitted effect of over 65% in size; many hits overshoot -100%
Target sequence (P80244 whole entry, looked up): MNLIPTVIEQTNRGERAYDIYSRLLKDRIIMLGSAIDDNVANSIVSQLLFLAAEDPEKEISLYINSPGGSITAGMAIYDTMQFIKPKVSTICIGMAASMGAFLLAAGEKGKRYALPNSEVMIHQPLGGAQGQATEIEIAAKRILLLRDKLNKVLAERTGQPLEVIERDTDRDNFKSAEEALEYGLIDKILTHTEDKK
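Purified B. subtilis ClpP, 10 microg/mL final in Tris/HCl pH8 with KCl, BSA, glycerol and Tween-20, cleaved an Abz/nitrotyrosine-quenched decapeptide. Fluorescence (ex 320, em 430) was read at 0 and 20 min at room temperature. Delta was normalized to 5.8 microM ADEP and DMSO/no-enzyme controls.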
An asterisk follows results filed as active; u = inconclusive; x = no result given; [ ] = dose if it differs, or a comment. Compounds were not picked by outcome; overall some 4.4% were active at least once.

SMILES | PINK1 modulator | Sfp inh | TRPML1 ag | Menin MLL FP FL | TRPV1 PAM | TRPML1 inh | ClpP mod
Cc1ccc(Cn2nnc3c(=O)[nH]c(C4CCN(S(=O)(=O)/C=C/c5ccccc5)CC4)nc32)cc1 | 0.6% | 9% | 0.9 | -5.7 | 16 | -4 | x
COc1ccc(NC(=S)N(CCCN2CCC(C)CC2)Cc2cccs2)cc1Cl | 5.0% | 32µM* | 0.9 | -4.8 | 2 | 51 | x
CCn1c(CSc2nc(C)cc(C)n2)nnc1SCC(=O)Nc1nc(-c2ccccc2)cs1 | 20%[38.3 µM] | 4% | 9.2 | 0.7 | 4 | -14 | -0.7%
COc1cc(C(=O)NC(=S)Nc2ccc3ccccc3c2)cc(OC)c1OC | 7.1% | x | -0.2 | x | x | -28 | -8.4%
CC(C=CC(O)=C1C(=O)CNC1=O)=C[C@@H](C)C1OC2(C)OC(C(=O)C3O[C@@]32C)C1C (stereo not given in full) | 4.2% | x | -0.4 | x | x | x | 1.2%
CCCOc1ccc(C(=O)Nc2ccc(NC(=O)c3ccccc3)c(Br)c2)cc1 | 0.2% | x | -0.6 | x | x | -10 | 3.6%
O=C1NC[C@@H](CCCCN2C[C@H](Cc3ccc(O)cc3)N(Cc3ccccc3)C(=O)C2=O)N(CCC2CCCCC2)C1=O | 0.8% | x | -0.4 | x | x | x | 1.8%
O=C(CSc1nc2cc(Cl)ccc2s1)Nc1cccc(S(=O)(=O)N2CCOCC2)c1 | 0.1% | 13% | 0.2 | 1.9 | 12 | -4 | 0.5%
Cc1ccc(-c2nn(CC(N)=O)c(=O)c3ccccc23)cc1S(=O)(=O)N(C)C | x | 12% | 0.1 | -0.5 | 6 | 18 | 0.2%
Cc1ccccc1OCC(=O)NC(=S)Nc1ccc(S(=O)(=O)NC2CCCCC2)cc1 | 0.9% | 24% | 0.8 | 8.4 | -7 | 50 | -0.7%
Cn1c(NCC(O)c2ccccc2)nc2c1c(=O)n(Cc1ccc(Cl)c(Cl)c1)c(=O)n2C (stereo not given) | -3.4% | x | 0.3 | x | x | -7 | -4.3%
Cc1noc(NS(=O)(=O)c2ccc(NC(=O)NC(C)(C(F)(F)F)C(F)(F)F)cc2)c1C | 0.9% | 17% | -0.2 | -0.3 | -1 | -11 | -4.3%
COc1ccccc1CC(=O)N1CCC(n2nccc2NC(=O)C2CCOC2)CC1 (stereo not given) | 1.6% | 1% | 1.1 | x | -4 | 8 | -2.3%
Cc1ccc(-c2nc(CN(C)Cc3cccc4cnccc34)c(C)o2)s1 | -2.0% | -24% | -0.2 | 2.7 | 0 | -30 | -25%
N#Cc1c(-c2ccncc2)cc(-c2ccc(F)cc2)nc1N | -2.7% | 6% | -0.8 | -1.3 | 4 | -2 | 0.0%
Cc1cccc(C2N3CC4(C(C)C)CN2CC(C(C)C)(C3)C4=O)c1 (stereo not given) | 10% | x | 1.0 | x | x | -12 | 0.2%
Fc1ccc(-c2nc3ccc(Cl)cn3c2Cc2ccccc2)cc1 | u | x | -0.1 | x | x | -8 | u
O=C1c2ccccc2NC(c2cccs2)N1O (stereo not given) | -2.2% | x | -0.4 | x | -8 | 4 | x
O=C(CSc1nnc(-c2ccncc2)o1)N1CCCCCC1 | -0.7% | 24% | 0.9 | -1.1 | 4 | 13 | x
COc1ccc(NS(=O)(=O)c2cccc(C(=O)NCC3CCCO3)c2)cc1 (stereo not given) | -4.5% | x | 0.6 | x | 14 | -1 | -1.8%
N/C(=N\OC(=O)Cc1cccs1)c1ccc(Br)cc1 | 3.5% | 5% | 0.8 | 1.6 | 6 | 7 | x
COc1ccc(S(=O)(=O)Nc2c(NC3CCCCC3)c3ccccc3oc2=O)cc1OC | -0.1% | -1% | -0.3 | x | -2 | -16 | -4.9%
Cc1ccc(S(=O)(=O)CCC(=O)OCC(=O)NC(C)c2ccccc2)cc1 (stereo not given) | -0.4% | x | -0.4 | x | -3 | -2 | 0.9%
COc1ccc(C2C(C(=O)c3ccc(C)o3)=C(O)C(=O)N2Cc2cccnc2)cc1OC (stereo not given) | 0.9% | 4% | 0.6 | -0.3 | 2 | -13 | x
CCOC(=O)C1c2cccc(O)c2CCN1C(C)=O (stereo not given) | 4.8% | x | 0.0 | x | x | 0 | -0.2%
O=C(NCc1cccnc1)C1CC(c2ccccc2Cl)=NO1 (stereo not given) | 5.6% | 11% | 0.2 | 0.1 | 1 | 51 | 1.2%
CCCn1c(N)c(Sc2ccc(Cl)cc2)c(=O)n(CCC)c1=O | -0.4% | 15% | -1.1 | 7.7 | -11 | -22 | 5.2%
CCOc1ccc(NC(=O)CCCc2cc(-c3ccc(OCC)cc3)on2)cc1 | 0.2% | 2% | -0.1 | 1.5 | 1 | 3 | 0.5%
CCNC(=S)Nc1ccc2c(c1)c(=O)n(C)n2Cc1ccc(Cl)cc1 | 0.7% | x | -0.9 | x | x | x | 5.2%
O=C(O)C1CCN(S(=O)(=O)c2cccc3nsnc23)CC1 | -1.6% | 13% | -1.2 | 3.4 | 5 | 21 | -1.4%
COCCOC(=O)c1c(C)n(C)c2ccc(OC(=O)C3CC3)cc12 | -1.1% | 5% | 0.7 | 1.4 | u | 2 | -3.8%
Cc1noc(-c2ccc(N3CCC(C)CC3)c([N+](=O)[O-])c2)n1 | -0.5% | x | -0.5 | x | x | -5 | -0.4%

13 entries already listed, sorted by length of the SMILES, smallest number first:
SMILES | PINK1 modulator | Sfp inh | TRPML1 ag | Menin MLL FP FL | TRPV1 PAM | TRPML1 inh | ClpP mod
O=C1c2ccccc2NC(c2cccs2)N1O (stereo not given) | -2.2% | x | -0.4 | x | -8 | 4 | x
CCOC(=O)C1c2cccc(O)c2CCN1C(C)=O (stereo not given) | 4.8% | x | 0.0 | x | x | 0 | -0.2%
O=C(CSc1nnc(-c2ccncc2)o1)N1CCCCCC1 | -0.7% | 24% | 0.9 | -1.1 | 4 | 13 | x
O=C(NCc1cccnc1)C1CC(c2ccccc2Cl)=NO1 (stereo not given) | 5.6% | 11% | 0.2 | 0.1 | 1 | 51 | 1.2%
O=C(O)C1CCN(S(=O)(=O)c2cccc3nsnc23)CC1 | -1.6% | 13% | -1.2 | 3.4 | 5 | 21 | -1.4%
CCCn1c(N)c(Sc2ccc(Cl)cc2)c(=O)n(CCC)c1=O | -0.4% | 15% | -1.1 | 7.7 | -11 | -22 | 5.2%
COCCOC(=O)c1c(C)n(C)c2ccc(OC(=O)C3CC3)cc12 | -1.1% | 5% | 0.7 | 1.4 | u | 2 | -3.8%
CCNC(=S)Nc1ccc2c(c1)c(=O)n(C)n2Cc1ccc(Cl)cc1 | 0.7% | x | -0.9 | x | x | x | 5.2%
CCOc1ccc(NC(=O)CCCc2cc(-c3ccc(OCC)cc3)on2)cc1 | 0.2% | 2% | -0.1 | 1.5 | 1 | 3 | 0.5%
COc1ccc(NS(=O)(=O)c2cccc(C(=O)NCC3CCCO3)c2)cc1 (stereo not given) | -4.5% | x | 0.6 | x | 14 | -1 | -1.8%
Cc1ccc(S(=O)(=O)CCC(=O)OCC(=O)NC(C)c2ccccc2)cc1 (stereo not given) | -0.4% | x | -0.4 | x | -3 | -2 | 0.9%
COc1ccc(S(=O)(=O)Nc2c(NC3CCCCC3)c3ccccc3oc2=O)cc1OC | -0.1% | -1% | -0.3 | x | -2 | -16 | -4.9%
COc1ccc(C2C(C(=O)c3ccc(C)o3)=C(O)C(=O)N2Cc2cccnc2)cc1OC (stereo not given) | 0.9% | 4% | 0.6 | -0.3 | 2 | -13 | x

Source: PubChem
